# Screens: PubChem, several laboratories
# rRNA inh HTS: inhibits bacterial ribosomal RNA function over humanized ribosomes. E. coli WT GFP vs humanized-ribosome RFP mutants, fluorescence, 24 h; hits give low values; DMSO median 0, no signal -100. GFP signal change (wild-type ribosome), % (no concentration beside the values). actives 1.6% (n = 350,000);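 active means significant combined selectivity score with lowered wild-type GFP, culture density cut under 30%, mutant RFP and density less affected; inactive means any of these conditions unmet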; further: one replicate is shown; some compounds called inactive have numbers as strong as hits
# Calb FLC: affects C. albicans growth with fluconazole. growth inhibition, % (no concentration beside the values). actives 0.57% (n = 300,000). C. albicans CaCi-2 (fluconazole-resistant clinical isolate) + fluconazole, Alamar Blue growth, 48 h. AID 1979;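 active means most replicates above 75%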;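 further: all wells also contain fluconazole at 8 µg/ml as a sub-toxic cotreatment; 0% = median of DMSO wells and 100% = median of geldanamycin control wells; wells of about 8 µL received 7.5 nL stock; the first replicate is given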
# T cruzi inh: blocks replication of Trypanosoma cruzi; T. cruzi beta-gal in NIH3T3, luminescence, 90 h; inhibition, % (no concentration beside the values); actives 1.4% (n = 300,000);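 active means mean inhibition across valid replicates above about 55%, limit read from the data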;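 further: signal also drops with host cell toxicity which is not excluded here; 0% = plate median of DMSO wells and 100% = zero luminescence signal; higher percent means less beta-gal luminescence so fewer parasites; stock transfer was 50 nL into about 50 µL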
# LANA-H2B inh: blocks KSHV LANA binding to histone H2A/H2B; cell-free LANA-H2A/H2B peptide, fluorescence polarization; actives 0.6% (n = 320,000); inhibition, % (no concentration beside the values); Q9QR71; in the data active means inhibition mostly above about 10%, no sharp cut-off; inactive means mostly below about 6.7%;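 further: stock transfer was 7.5 nL into about 10 µL; 0% = median of vehicle wells and 100% = median of positive control wells; one replicate is shown; the record names a cut of 25% in any replicate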
# B2AR ag: agonists of human beta-2 adrenergic receptor inducing internalization; P07550; Am2.2-beta2AR cells, FAP receptor internalization, flow cytometry; reference of the scale not given here; response, % (test concentration not listed); actives 0.43% (n = 340,000); AID 504454;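 active means response above a set limit, near 3 SD of response in nonfluorescent compounds, cut at about 42% in these data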;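 further: stock transfer was 100 nL into about 11 µL; a reference agonist was the positive control; negative values mostly stem from fluorescent compounds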
# Target sequence (P07550 whole entry, looked up): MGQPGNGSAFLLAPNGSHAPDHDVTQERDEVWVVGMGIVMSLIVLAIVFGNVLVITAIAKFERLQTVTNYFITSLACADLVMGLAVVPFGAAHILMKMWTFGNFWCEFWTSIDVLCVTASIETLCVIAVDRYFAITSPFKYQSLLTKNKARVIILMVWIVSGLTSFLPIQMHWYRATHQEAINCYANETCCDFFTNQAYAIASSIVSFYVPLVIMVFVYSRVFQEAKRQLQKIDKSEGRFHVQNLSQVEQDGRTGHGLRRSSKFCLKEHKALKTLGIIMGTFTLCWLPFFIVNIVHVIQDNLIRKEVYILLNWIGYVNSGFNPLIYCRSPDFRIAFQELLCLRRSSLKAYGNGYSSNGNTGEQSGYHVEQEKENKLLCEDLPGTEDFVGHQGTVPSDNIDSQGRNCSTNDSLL
# Beta cell apopt: blocks beta cell apoptosis | INS-1E cytokine-induced death, ATP luminescence, 48 h; percent of positive-control rescue, neutral wells zero | protection from apoptosis, % (test concentration not listed) | actives 0.8% (n = 300,000) | AID 435005;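 active means all replicates at 75% or more, or half of them and the mean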;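 further: 0% = cytokine-treated negative control wells and 100% = positive control rescue; higher means more ATP so stronger rescue from cytokine killing; wells of about 40 µL received 100 nL stock; the first replicate is given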
# ALR H2O2 inh: human ALR oxidase inhibition via reduced H2O2; purified ALR, DTT oxidation, H2O2 HRP-luminol luminescence; AID 485317; actives 3.8% (n = 290,000); inhibition, % (concentration not given with the values);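 active means mean and each replicate at 75% or more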;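 further: stock transfer was 7.5 nL into about 7.5 µL; 0% = neutral wells and 100% = wells with inactivated enzyme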
# Target sequence (P55789 whole entry, looked up): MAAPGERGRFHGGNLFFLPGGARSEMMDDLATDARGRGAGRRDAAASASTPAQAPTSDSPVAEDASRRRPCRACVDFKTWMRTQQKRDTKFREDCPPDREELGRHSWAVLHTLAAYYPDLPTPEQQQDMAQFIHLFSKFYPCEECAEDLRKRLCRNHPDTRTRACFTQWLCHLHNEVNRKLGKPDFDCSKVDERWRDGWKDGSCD
# A1 inh: inhibitors of the anti-apoptotic protein A1, read as caspase activation; MEF A1-2A-BIM cells, Caspase-Glo 3/7 luminescence, 3 h; percent of clofoctol response, vehicle zero; caspase activation, % (concentration not given with the values); actives 0.066% (n = 330,000);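 active means over half of replicate activation scores above 10%, or exactly half above 10 with the replicate mean above 10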;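 further: wells of about 30 µL received 50 nL stock; many hits fall short of the cut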
# rRNA inh HTS OD600: recorded beside rRNA inh HTS, whose call it bears; OD600 change, %; measured here: OD600 growth;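 optical density of the mix in the first replicate; 0 = DMSO median and -100 = no signal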
# rRNA inh HTS RFP: second read-out of rRNA inh HTS, no call of its own (marks repeat the call); RFP signal change, %; measured here: RFP humanized mutant strains;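 first replicate; 0 = DMSO median and -100 = no signal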
# Starred values were filed as active, the others as inactive; / = not tested or not shown.
[1] CCOC(=O)c1cnc(-c2ccccc2)nc1Oc1ccccc1
[2] CC1=CC(C)C(/C=N/N=C(N)N)C(C)C1 (configuration not stated)
[3] CCOC(=O)C1CCN(C(=O)CCCN2C(=O)c3ccccc3C2=O)CC1
[4] Cc1c(C(=O)N2CCN(c3ncccn3)CC2)oc2ccc(Cl)cc12
[5] CCC(=O)Oc1c(C(=O)CC)cc2c(C)cc(=O)oc2c1C
[6] O=C(Nc1ccccc1Cl)Oc1ccc(-c2ccccc2)cc1
[7] CC12CC(c3ccccc3O1)N(C(=O)c1ccc(Br)o1)C(=O)N2c1ccccc1 (configuration not stated)
[8] NC(=O)c1cc(S(=O)(=O)NCc2ccccc2)cs1

Assay by compound	1	2	3	4	5	6	7	8
rRNA inh HTS	/	18	/	-39	/	14	/	15
rRNA inh HTS OD600	/	9	/	-63	/	8	/	29
rRNA inh HTS RFP	/	3.6	/	-11	/	5.5	/	0.4
Calb FLC	12	-6	-2	/	4	-19	18	17
T cruzi inh	3	6	-3	/	7	-4	-4	3
LANA-H2B inh	1.9	1.5	-0.6	-2.3	-0.6	-6.4	-2.7	-3.6
B2AR ag	-4	2	0	-10	20	-1	7	2
Beta cell apopt	-5	/	7	-3	11	-1	-6	-6
ALR H2O2 inh	3	-13	/	-2	-2	58	5	-5
A1 inh	0.5	0.3	0.3	0.0	-0.1	-1.7	-0.1	0.8

[9] CCS(=O)(=O)N1CCCC(C(=O)NC2CCC(C)CC2)C1 (configuration not stated)
[10] Cc1ccccc1C([O-])=Nc1ccc[n+](-c2nc3ccccc3nc2NS(=O)(=O)c2ccccc2)c1
[11] CCOC(=O)Nc1ccc2c(c1)N(C(=O)CCN1CCN3CCCC3C1)c1ccccc1CC2 (configuration not stated)
[12] CN(C(=S)NC(=O)c1ccccc1)c1c(N)n(Cc2ccccc2)c(=O)[nH]c1=O
[13] Cc1c(N2C(=O)CSC2=S)c(=O)n(-c2ccccc2)n1C
[14] O=C(CN1c2ccccc2Sc2ccccc21)N/N=C/c1ccc(Cl)cc1Cl
[15] CC1CCN(c2ccc(NC(=O)Cn3c(=O)oc4ccccc43)cc2)CC1
[16] O=S(=O)(c1cccc2nsnc12)N1CCNCC1

Assay by compound	9	10	11	12	13	14	15	16
rRNA inh HTS	/	/	/	8	10	29	-6	3
rRNA inh HTS OD600	/	/	/	2	18	16	1	11
rRNA inh HTS RFP	/	/	/	0.5	6.8	3.9	24	-0.3
Calb FLC	1	-1	0	8	-7	8	-13	-11
T cruzi inh	-15	2	-3	7	-10	49	3	-3
LANA-H2B inh	5.1	4.5	1.8	2.3	-2.0	3.4	0.5	-3.1
B2AR ag	-3	/	-7	-9	4	4	-7	5
Beta cell apopt	-6	-2	0	0	-7	0	0	/
ALR H2O2 inh	/	89*	-6	-3	16	-5	6	-25
A1 inh	0.4	0.3	0.3	0.2	0.0	0.2	-0.1	1.0

[17] Cc1noc(C)c1C(=O)Nc1c(F)cc(F)cc1Br
[18] Cc1cc(CO)nn1-c1ccc([N+](=O)[O-])cc1
[19] COc1ccc(CCN2CC(C(=O)N3CCSCC3)CCC2=O)cc1 (configuration not stated)
[20] CN(CCNC(=O)c1cc2c(-c3ccccc3F)nn(C)c2s1)C1CCCCC1
[21] O=C(NCc1csc(-c2cccs2)n1)C1CCCCC1
[22] C1CCC2=NCCCN2CC1
[23] COc1ccc(C(=O)COC(=O)[C@H](C)Nc2ccc(C(F)(F)F)cc2[N+](=O)[O-])cc1
[24] O=C(COC(=O)c1cccnc1Cl)NCCc1ccccc1

Assay by compound	17	18	19	20	21	22	23	24
rRNA inh HTS	11	8	2	-8	5	/	/	2
rRNA inh HTS OD600	2	10	3	-14	3	/	/	5
rRNA inh HTS RFP	-4.0	-3.1	-1.4	5.8	2.3	/	/	-2.9
Calb FLC	0	-4	-1	3	-17	5	5	/
T cruzi inh	-3	-7	-19	21	12	-4	4	/
LANA-H2B inh	3.9	-22	-1.3	-1.2	-8.2	-0.7	0.8	-228
B2AR ag	-3	0	2	-1	-5	5	/	-5
Beta cell apopt	-2	2	-5	10	-11	0	-2	1
ALR H2O2 inh	-3	-2	-16	-19	-24	3	-5	1
A1 inh	0.6	0.5	0.7	0.3	-1.3	0.8	-0.4	0.1

[25] COc1cccc(Cn2c(-c3nonc3N)nc3ccccc32)c1
[26] COc1ccc(N2CCN(c3ncccn3)CC2)cc1
[27] O=Nc1c(O)[nH]c2ccc(Cl)cc12
[28] Cc1ccc(NC(=O)CN2CCCC2c2cccn2C)cc1C (configuration not stated)
[29] O=C(Cc1cccs1)NC(c1ccccc1)c1ccccc1
[30] CC(C)(C)OC(=O)N1CC(O)CC1C(=O)OCC(=O)c1ccc(-c2ccccc2)cc1 (configuration not stated)
[31] Cc1ccc(C)c(NC(=O)CSc2nnc(-c3ccccc3)n2N)c1
[32] O=C(Nc1cc(Cl)cc(Cl)c1)Nc1cnccn1

Assay by compound	25	26	27	28	29	30	31	32
rRNA inh HTS	/	/	1	10	-7	2	/	-33
rRNA inh HTS OD600	/	/	2	-5	-15	5	/	-55
rRNA inh HTS RFP	/	/	-0.3	1.2	-3.6	-0.4	/	0.7
Calb FLC	-4	-1	-14	/	-6	0	1	-3
T cruzi inh	-2	8	-13	/	4	2	-13	7
LANA-H2B inh	-5.9	4.3	-2.3	0.5	1.7	0.7	2.9	3.7
B2AR ag	2	-19	7	11	2	-2	-8	-10
Beta cell apopt	30	-3	-3	2	/	1	/	47
ALR H2O2 inh	-3	99*	-4	47	-13	-1	0	0
A1 inh	0.3	-0.7	0.6	0.3	-0.6	0.7	0.4	0.2

# Quoted from the listing.
# O=C(Nc1cc(Cl)cc(Cl)c1)Nc1cnccn1 @ Calb FLC: -3
# Cc1ccc(C)c(NC(=O)CSc2nnc(-c3ccccc3)n2N)c1 @ B2AR ag: -8

# Carrying on.
[33] Cc1ccc(F)c(CNC(=O)C2CCC(=O)N(Cc3ccccn3)C2)c1F (configuration not stated)
[34] COCc1c(Br)c(C)nc(OCC(=O)N/N=C/c2ccco2)c1C#N
[35] COC(=O)c1ccc(C(=O)Nc2ccc3nc(-c4ccncc4)[nH]c3c2)cc1
[36] COc1ccccc1NC(=O)COC(=O)c1cc2ccccc2cc1O
[37] C=CCn1c(-c2cccn(Cc3ccccc3)c2=O)n[nH]c1=S
[38] Cc1c(OCC(=O)NCCCn2ccnc2)ccc2c3c(c(=O)oc12)CCCC3
[39] COc1ccc(NC(=O)c2cccnc2N2CCOCC2)cc1
[40] O=C(O)/C=C/C(=O)c1c(-c2ccccc2)[nH]c2ccccc12

Assay by compound	33	34	35	36	37	38	39	40
rRNA inh HTS	1	-1	-28*	4	/	-14	24	9
rRNA inh HTS OD600	5	-1	-6.2*	0	/	-10	18	2
rRNA inh HTS RFP	-0.6	-2.0	-3.8*	-3.3	/	-2.2	0.7	-2.3
Calb FLC	-24	-12	11	/	8	14	18	-20
T cruzi inh	8	3	-17	/	-10	12	-6	-28
LANA-H2B inh	2.6	4.4	7.3	0.6	5.9	-0.3	4.2	-4.6
B2AR ag	-3	-1	9	2	9	0	3	3
Beta cell apopt	1	-2	/	-3	-3	8	6	-7
ALR H2O2 inh	-3	4	/	-2	36	-4	-33	98*
A1 inh	-0.5	-1.1	0.2	-2.8	0.1	-0.3	-0.4	-0.4

# Entries shown so far containing two or more sulfur atoms:
[8] NC(=O)c1cc(S(=O)(=O)NCc2ccccc2)cs1
[13] Cc1c(N2C(=O)CSC2=S)c(=O)n(-c2ccccc2)n1C
[16] O=S(=O)(c1cccc2nsnc12)N1CCNCC1
[21] O=C(NCc1csc(-c2cccs2)n1)C1CCCCC1

Assay by compound	8	13	16	21
rRNA inh HTS	15	10	3	5
rRNA inh HTS OD600	29	18	11	3
rRNA inh HTS RFP	0.4	6.8	-0.3	2.3
Calb FLC	17	-7	-11	-17
T cruzi inh	3	-10	-3	12
LANA-H2B inh	-3.6	-2.0	-3.1	-8.2
B2AR ag	2	4	5	-5
Beta cell apopt	-6	-7	/	-11
ALR H2O2 inh	-5	16	-25	-24
A1 inh	0.8	0.0	1.0	-1.3

# Going on with the list.
[41] CC(OC(=O)c1ccccc1C(=O)N(C)c1ccccc1)C(=O)Nc1ccccc1[N+](=O)[O-] (configuration not stated)
[42] COc1cccc(NC(=O)C2CCN(S(=O)(=O)c3ccc4c(c3)NC(=O)CO4)CC2)c1
[43] O=C1COc2ccc(N3C(=O)c4ccccc4C3=O)cc2N1
[44] CC(C)c1ccc(C2C(C(=O)c3ccco3)=C(O)C(=O)N2CCN2CCOCC2)cc1 (configuration not stated)
[45] O=C(N/N=C/c1ccc([N+](=O)[O-])o1)C1CCCC1
[46] O=C(NCC1CCCO1)c1cc2n(n1)C(C(F)(F)F)CC(c1ccc(Br)cc1)N2 (configuration not stated)
[47] O=C(CS(=O)CC(=O)N(c1ccccc1)C(C(=O)NC1CCCCC1)c1ccco1)Nc1ccc(F)cc1 (configuration not stated)
[48] Cc1cc2ncn(-c3ncnc4scc(-c5ccccc5)c34)c2cc1C

Assay by compound	41	42	43	44	45	46	47	48
rRNA inh HTS	3	-12	/	9	-60	/	9	/
rRNA inh HTS OD600	-3	-4	/	4	-80	/	4	/
rRNA inh HTS RFP	0.6	5.4	/	4.2	-18	/	-6.6	/
Calb FLC	8	-1	-15	5	25	93*	36	17
T cruzi inh	9	-4	-12	-2	72*	-16	-8	17
LANA-H2B inh	-8.1	/	1.9	-2.1	-5.7	-2.6	4.0	-5.0
B2AR ag	-5	-2	/	-3	-1	1	-4	0
Beta cell apopt	6	/	-5	-3	8	-30	0	-8
ALR H2O2 inh	3	-17	/	7	-8	/	/	-11
A1 inh	-0.3	/	-0.6	-0.1	0.0	-0.2	-0.8	-0.1

[49] Cc1ccc(C)c(Cn2c(=O)n(CCC(=O)NCc3ccco3)c(=O)c3sccc32)c1
[50] COc1ccc(Cn2c(=O)sc3ccccc32)cc1OC
[51] O=C(NNC(=S)NCc1ccco1)c1cccs1
[52] COc1ccc(CNCc2cn(-c3cccc(F)c3)nc2-c2ccc(C)o2)cc1
[53] Cc1sc(NC(=O)CSc2nnc(C(C)C)n2C)c(C#N)c1C
[54] O=C(CCCn1c(=S)[nH]c2cc3c(cc2c1=O)OCO3)NCc1ccco1
[55] Cc1cccc(-c2nsc(SCC(=O)N3CCCC3)n2)c1
[56] Cc1nn(C)cc1CNC(=O)C1CCC(=O)N(Cc2cccc(C(F)(F)F)c2)C1 (configuration not stated)

Assay by compound	49	50	51	52	53	54	55	56
rRNA inh HTS	/	/	2	-1	/	4	/	12
rRNA inh HTS OD600	/	/	5	-17	/	7	/	2
rRNA inh HTS RFP	/	/	0.3	22	/	-2.5	/	0.1
Calb FLC	-12	-4	1	6	1	-33	40	-17
T cruzi inh	-1	-45	-6	42	1	-20	8	-13
LANA-H2B inh	-3.2	4.1	-1.9	2.2	-2.1	3.9	2.4	-2.8
B2AR ag	11	0	2	7	-10	0	-8	-2
Beta cell apopt	0	28	-3	0	-2	0	3	0
ALR H2O2 inh	1	-18	-5	-4	24	-3	-26	-3
A1 inh	-0.1	-0.8	0.4	-0.4	1.7	-0.1	-6.7	0.3

# This is a subset; rates above refer to the full screens.
